From PubChem
MARV entry inh – qHTS for inhibitors of binding or entry into cells for Marburg Virus; Marburg virus pseudotyped entry inhibition, cell reporter; control for the full effect not named in the record; about a third of the inactives were read at about 46 µM; Potency, µM (titrated, usually from 37.8 µM), for the others: at the top dose activity change, negative = inhibition, most hits filed as inhibitors; 300,000 tested, 1.8% active; AID 540276, 2011; active = well fitted inhibition curve with a large enough effect; inconclusive = small, poorly fitted or top-dose-only effect, or effect the other way; inactive = flat fitted curve, though single readings scatter; tested in HEK293 cells; about a fifth of its hits are not listed in these tables; also: % is scaled to controls: 0 for no effect and ±100 for the full control effect; luciferase read-out
NS1 function inh – qHTS Assay for Inhibitors of Influenza NS1 Protein Function. S. cerevisiae slowed by influenza A NS1, growth recovery by OD600. Potency, µM (series often up to 46.1 µM), without a hit: top-dose activity, positive = more growth. 270,000 tested, 0.4% active; active means well fitted rising curve with a large enough effect; inconclusive means small, poorly fitted or top-dose-only effect; inactive means no such curve, though single readings can be large or run the other way; also: nearly all actives have a fitted effect of over 50% in size
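A cell-based growth assay was used: compounds that relieve NS1-induced slow growth of budding yeast raise OD600. Assay medium was yeast nitrogen base with ammonium sulphate and -URA supplement, pH 6.0, with 2% galactose.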
LASV entry inh – qHTS for Inhibitors of binding or entry into cells for Lassa Virus; 300,000 tested, 1.2% active; Lassa virus pseudotype entry inhibition, cell reporter; control for the full effect not named in the record; Potency, µM (top dose mostly 37.9 µM), without a hit: at the top dose activity change, negative = inhibition, actives largely listed as inhibitors; AID 540256, 2011; active means well fitted inhibition curve with a large enough effect; inconclusive means small, poorly fitted or top-dose-only effect, or effect the other way; inactive means flat fitted curve, though single readings scatter; tested in HEK293 cells; also: % is scaled to controls: 0 for no effect and ±100 for the full control effect; nearly all actives have a fitted effect of over 50% in size; luciferase read-out
Cruzain inh noDet – qHTS Assay for Promiscuous and Specific Inhibitors of Cruzain (without detergent) | Cruzipain (Trypanosoma cruzi), P25779 | purified cruzain, Z-FR-AMC fluorescence, no detergent | Potency, µM, for the others: max response, negative = inhibition, actives largely listed as inhibitors | 200,000 tested, 2.3% active | AID 1476, 2009;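 also: plate controls were enzyme without inhibitor for no effect and buffer without enzyme for full effect; nearly all actives have a fitted effect of over 40% in size; top concentration of the series not given in the record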
Target sequence (P25779 123-467 limits assumed): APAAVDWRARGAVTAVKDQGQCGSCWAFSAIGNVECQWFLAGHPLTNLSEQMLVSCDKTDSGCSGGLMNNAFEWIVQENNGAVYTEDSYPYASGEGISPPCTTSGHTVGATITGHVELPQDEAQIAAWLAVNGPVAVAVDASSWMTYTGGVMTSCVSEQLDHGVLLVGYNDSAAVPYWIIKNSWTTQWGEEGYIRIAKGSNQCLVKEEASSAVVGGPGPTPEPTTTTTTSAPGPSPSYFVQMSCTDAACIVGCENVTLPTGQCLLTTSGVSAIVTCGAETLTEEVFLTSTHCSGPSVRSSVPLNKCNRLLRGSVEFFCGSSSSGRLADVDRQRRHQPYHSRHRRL
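Detergent-free condition (0.00005% Triton X-100) in acetate buffer pH 5.5 with DTT. 1.5 nM enzyme and compound were pre-mixed 15 min, then 2 uM Z-FR-AMC substrate added; reaction progress from fluorescence change between first and third reads (60 s).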
Cruzain inh Det – qHTS Assay for Promiscuous and Specific Inhibitors of Cruzain (with detergent); Cruzipain (Trypanosoma cruzi), P25779; purified cruzain, Z-FR-AMC fluorescence, 0.01% Triton; Potency, µM, without a hit: max response, negative = inhibition, usual class: inhibitors; 200,000 tested, 0.43% active;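 also: plate controls were neutral wells for no effect and buffer without enzyme for full effect; nearly all actives have a fitted effect of over 40% in size; top concentration of the series not given in the record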
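Detergent-containing arm of a paired screen for aggregation-based inhibition: 0.01% Triton X-100 present. Cruzain at 1.5 nM cleaved 2 uM Z-FR-AMC at pH 5.5 with 5 mM DTT; AMC fluorescence gain over 60 s measured activity.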
The depositor's hits bear a star; ? = inconclusive; . = no result given; & = joins results of further samples; [ ] = another dose, or the depositor's remark. Unless noted, calls follow the shape of the dose curve; as a rule, active = well fitted curve in the direction sought with a large enough effect; inconclusive = small, poorly fitted or top-dose-only effect, or another doubt; inactive = no such curve, though single readings can be large; an effect the other way counts as inactive or inconclusive. Potency is read from the fitted curve at half-maximal effect.

nr	Molecule	MARV entry inh	NS1 function inh	LASV entry inh	Cruzain inh noDet	Cruzain inh Det
1	CCCC[C@@H](C(=O)O)[C@H](C)CC(=O)Nc1cccc(C(=O)O)c1	9.5%	.	.	.	.
2	O=C(O)C[C@@H]1CCCc2ccccc2[C@H]1O	37.8%	.	.	.	.
3	O=C1C(=O)N(CCN2CCOCC2)[C@@H](c2ccccn2)/C1=C(/O)c1ccc(F)cc1	1.9%	.	.	.	.
4	CCCCOC(OCCCC)[C@H](O)CSc1ccc2ccccc2c1	-28.4%[14.2 µM]	.	.	.	.
5	Cc1cc2c(nc1C)CCCN2C[C@H](O)CN1CCCc2nc(-c3ccc(Br)cc3)ccc21	1.7%&1.7%[14.2 µM]	.	.	.	.
6	CC(=O)C1=C(C)N(Cc2ccco2)C(=O)NC1c1ccccc1 (stereo not drawn)	?	.	.	.	.
7	O=C1N(CC2CC2)c2cccc(Br)c2[C@@]12O[C@H](COc1ccccc1)CC1=CCCC12 (stereo partly drawn)	?	.	.	.	.
8	CC12C=C(/C=C/c3ccc(F)cc3)C(C)(C1)C(c1ccc(F)cc1)CC2=O (stereo not drawn)	8.7%[14.2 µM]	.	.	.	.
9	O=C(OCc1cn([C@@H]2CN(C(=O)C3CCCCC3)[C@@H](c3ccc(Cl)cc3)C[C@@H]2O)nn1)c1ccccc1	?	.	.	.	.
10	CCN1C(=O)/C(=C2\C=CC3=C(CCCC3)N2CC)SC1=S	-6.6%	.	.	.	.
11	COC(=O)C1=C(C)N=C2S[C@H](C)C(=O)N2[C@@H]1/C=C\c1ccccc1OC	1.9%	.	.	.	.
12	C=CCN1C(=O)CC[C@@]23C1=NC(C(=O)OC)=C(C(=O)OC)[C@@H]2N(C)c1ccccc13	13.6%[14.2 µM]	.	.	.	.
13	COc1cccc([C@H]2Oc3ccc(OC)cc3C(=NO[C@@H](C)c3cc(-c4c(C)cc(C)cc4C)no3)[C@H]2O)c1	?	.	.	.	.
14	COC(=O)CC1=COC(O)C2C(CO)=CC[C@@H]12 (stereo partly drawn)	15.9%[14.2 µM]	.	.	.	.
15	COc1cccc(CNS(=O)(=O)c2cc(Br)ccc2Br)c1OC	?	.	.	.	.
16	CCOC(=O)N/N=C1\C[C@@H](O)[C@@H](O)[C@@H]2[C@@H]3C(=O)N(C4CCCCC4)C(=O)[C@@H]3CC[C@H]12	-24.9%[14.2 µM]	.	.	.	.
17	COc1cccc([C@H]2Oc3ccc(OC)cc3/C(=N\OC[C@@H](O)COCc3ccco3)[C@@H]2O)c1	13.6%[14.2 µM]	.	.	.	.
18	COC(=O)[C@@]1(C=C2c3ccc(F)cc3[C@@H](OC)[C@@H]2C)[C@@H]2OCCC[C@@H]21	?	.	.	.	.
19	O=S1(=O)CCSCCN1Cc1ccc(Cl)cc1	?	.	.	.	.
20	CC(C)C[C@H]1COc2cc(N3CCCC3)ccc2S(=O)(=O)N1	?	.	.	.	.
21	Cc1cc(C)c(-c2cc([C@H](C)ON=C[C@@H](C)[C@H](OCc3ccccc3)C(C)C)on2)c(C)c1	6.0%[14.2 µM]	.	.	.	.
22	C/C(CCN1CCc2nc(-c3ccccc3)c(-c3ccccc3)cc2C1)=N\OC[C@@H](O)[C@H]1O[C@@H]2OC(C)(C)O[C@@H]2[C@H]1O	25.9%[14.2 µM]	.	.	.	.
23	O=C(Nc1ccc(Cl)cn1)[C@H]1CCCN1S(=O)(=O)c1ccccc1	-25.6%	.	.	.	.
24	Cc1ccccc1OC[C@H](O)Cn1c(N2CCN(c3ccccc3)CC2)nc2c1c(=O)[nH]c(=O)n2C	-20.0%	.	.	.	.
25	COc1ccc(COC(=O)N/N=C2\C[C@@H](O)[C@@H](O)[C@@H]3[C@@H]4C(=O)N(C[C@@H]5CCCO5)C(=O)[C@@H]4CC[C@H]23)cc1	?	.	.	.	.
26	CCOC(=O)c1cnc(S[C@@H]2CC(=O)N(c3cccc(OC)c3)C2=O)nc1N	13.2%	.	.	.	.
27	C=CCOC(=O)N[C@H](C(C(=O)OC)=C(C)NCc1ccccc1)c1ccc2c(c1)OCO2	?	.	.	.	.
28	COc1ccc(O[C@H]2C=C[C@@H](c3ccccc3)O[C@H]2COC(=O)NCc2cccc3ccccc23)cc1	-28.0%&-28.0%[14.2 µM]	.	.	.	.
29	CCCC[C@]12Cc3cc(OC)c(OC)cc3[C@H](O1)c1c(cc(-c3ccccc3)oc1=O)O2	-24.8%[14.2 µM]	.	.	.	.
30	CCN1C(=NCc2ccc3c(c2)OCO3)N[C@@H](c2ccccc2)[C@H](C(=O)OC)[C@H]1C	?	.	.	.	.
31	COc1ccc(O[C@H]2C=C[C@@H](c3ccccc3)O[C@H]2COC(=O)CCC(C)=NO[C@@H](C)c2cc(-c3c(C)cc(C)cc3C)no2)cc1	3.1%[14.2 µM]	.	.	.	.
32	CCCCOCC1CN(Cc2ccccc2OC)S(=O)(=O)c2cc(Cl)ccc2O1 (stereo not drawn)	?	.	.	.	.
33	COc1ccc([C@]23Cc4ccccc4[C@H](O2)C2=C(CCCC2=O)O3)cc1	?	.	.	.	.
34	CCN1C(=NCCc2cccnc2)N[C@H](CCc2ccccc2)[C@H](C(=O)OC)[C@H]1C	-16.2%[14.2 µM]	.	.	.	.
35	C=C(C)C1CC23C(=O)[C@]4(C(=O)c5ccccc5)C[C@@]5(C)CCC(CC2C1(C)C)(C4=O)[C@@]35OC (stereo partly drawn)	8.9%[14.2 µM]	.	.	.	.
36	COC(=O)c1c(C(=O)OC)c2c3cc(OC)c(OC)cc3cc([Si](C)(C)C)n2c1C(=O)OC	24.3%[14.2 µM]	.	.	.	.
37	COc1ccc2c(c1)[C@H](C=Cc1ccccc1)[C@@H]([C@H](O)CO)O2	17.3%[14.2 µM]	.	.	.	.
38	C/C(CCC(=O)OC[C@@H]1O[C@H](C#Cc2ccccc2)C=C[C@@H]1Oc1ccc(C)cc1)=N/OC[C@@H](O)COCc1ccco1	-9.6%[14.2 µM]	.	.	.	.
39	COC(=O)[C@H]1[C@@H](c2ccccc2)NC(=O)N(CCc2cc(OC)c(OC)c(OC)c2)[C@@H]1C	-23.7%[14.2 µM]	.	.	.	.
40	C[C@]1(c2cnc(Nc3ccccc3)s2)CCC(=O)O1	-10.4%[46.1 µM]	.	.	.	.

The list goes on, overlapping the part above by four compounds.
nr	Molecule	MARV entry inh	NS1 function inh	LASV entry inh	Cruzain inh noDet	Cruzain inh Det
37	COc1ccc2c(c1)[C@H](C=Cc1ccccc1)[C@@H]([C@H](O)CO)O2	17.3%[14.2 µM]	.	.	.	.
38	C/C(CCC(=O)OC[C@@H]1O[C@H](C#Cc2ccccc2)C=C[C@@H]1Oc1ccc(C)cc1)=N/OC[C@@H](O)COCc1ccco1	-9.6%[14.2 µM]	.	.	.	.
39	COC(=O)[C@H]1[C@@H](c2ccccc2)NC(=O)N(CCc2cc(OC)c(OC)c(OC)c2)[C@@H]1C	-23.7%[14.2 µM]	.	.	.	.
40	C[C@]1(c2cnc(Nc3ccccc3)s2)CCC(=O)O1	-10.4%[46.1 µM]	.	.	.	.
41	C[C@H]1COC(=O)[C@H](Cc2ccccc2)NC(=O)[C@@H](C)COC(=O)[C@H](Cc2ccccc2)NC1=O	-12.3%&-12.3%&-12.3%[14.2 µM]	.	.	.	.
42	C[C@@H]1C=CCCO[C@]12C(=O)N(Cc1ccc(Br)cc1)c1ccccc12	26.8%[14.2 µM]	.	.	.	.
43	COCCn1c(CN2CCN(c3ccccc3F)CC2)nc2c1c(=O)n(C)c(=O)n2C	-5.5%	.	.	.	.
44	CC(C)CON=C1C[C@@H](O)[C@@H](O)[C@@H]2[C@H]3C(=O)N(c4ccc(F)cc4F)C(=O)[C@@H]3CC[C@H]12	-10.3%[14.2 µM]	.	.	.	.
45	COC(=O)C1=C(C)N(Cc2ccccc2)C(=NCCc2cccnc2)NC1c1ccccc1 (stereo not drawn)	-11.4%[14.2 µM]	.	.	.	.
46	COC(=O)c1ccc(CN2C(=O)[C@]3(OCCC=C[C@@H]3C)c3c(Br)cccc32)cc1	-6.9%&-9.6%[14.2 µM]	.	.	.	.
47	COC(=O)C1=C(C(=O)OC)[C@@H]2N(C)c3ccccc3[C@@]23C[C@@H](CO)N(C(=O)NC2CCCCC2)C3=N1	-1.9%[14.2 µM]	.	.	.	.
48	Cc1nc(NC2=NCN(CCN3CCOCC3)CN2)nc2c(C)cccc12	0.0%	0.2%	.	.	.
49	O=c1oc2c3c4c(cc2cc1-c1nc2ccccc2[nH]1)CCCN4CCC3	-0.4%	-0.3%	.	.	.
50	CN(C=O)CP(=O)(O)CCN1CCCC1=O	1.4%	21.4%	.	.	.
51	Cc1ccc(-c2cc(C(F)(F)F)n3nc(C(=O)N4CCCC4)cc3n2)cc1	0.0%	1.7%	.	.	.
52	COc1cc2nc(SCC(=O)NC3CC3)n(CCC3=CCCCC3)c(=O)c2cc1OC	-1.0%	1.3%	.	.	.
53	CCn1cc(C(=O)Nc2cc3c(cc2NC(C)=O)OCCO3)c(=O)c2ccc(C)nc21	-7.6%	-3.4%	.	.	.
54	CC(C)C1N=C2c3ccccc3N=C(SCc3cc(=O)n4ccccc4n3)N2C1=O (stereo not drawn)	1.4%	-1.2%	.	.	.
55	O=C1CCc2nc3sc4c(c3c(=O)n2N1)CCCC4	0.9%	0.8%	.	.	.
56	CC1=C(C)C(=O)NC(Nc2nc(C)c3cc(C)cc(C)c3n2)N1 (stereo not drawn)	0.0%	-7.1%	.	.	.
57	O=C(Nc1ccc(CN2CCOCC2)cc1)c1cc2ccccc2oc1=O	-3.4%	8.3%	.	.	.
58	Cc1cc(C)n2nc(SCc3cc(=O)n4ccccc4n3)nc2n1	6.4%	-0.8%	.	.	.
59	CCN(CC)CCCN1C(=O)C(=O)/C(=C(/O)c2ccc3c(c2)OCO3)C1c1ccccn1 (stereo not drawn)	6.4%	9.9%	.	.	.
60	O=C(c1ccc2c(c1)c(=O)oc1ccccc12)N1CCCCC1	-5.1%	-26.7%	.	.	.
61	O=C(CSc1ncnc2ccccc12)N1CCN(c2ccccc2)CC1	5.3%	0.1%	.	.	.
62	CCCC(C)C1C(C#N)=C(N)Oc2cc(C)oc(=O)c21 (stereo not drawn)	0.4%	-9.9%	.	.	.
63	Fc1cccc(-c2cc3nc4c(c(N5CCN(c6cnccn6)CC5)n3n2)CCCC4)c1	-1.5%	-1.6%	.	.	.
64	O=C(CN1CCOCC1)N1CCN(C(=O)CN2CCOCC2)CC1	-4.1%	4.9%	.	.	.
65	CN(C(=O)Cn1c(=O)n(CCCCC(=O)NC2CCCC2)c(=O)c2ccccc21)C1CCCCC1	1.6%	0.6%	.	.	.
66	Cc1cccc2c(=O)oc(-c3ccc4c(c3)C(=O)N(CC3CCCO3)C4=O)nc12 (stereo not drawn)	-0.4%	6.7%	.	.	.
67	Cc1cc(C(=O)CSCc2nnc3n(CCC(C)C)c(=O)c4ccccc4n23)c(C)n1C	5.4%	-1.1%	.	.	.
68	Cc1cc(C)c2c(n1)nn1c(N3CCOCC3)cc(C)nc21	-2.1%	6.8%	.	.	.
69	Cc1ccc(O)c(C2=Nc3ccccc3N=C(c3cccc(F)c3)C2)c1	.	.	-1.8%[46.1 µM]	-6.3%	-1.8%

Some of the compounds tested (hit frequency here may not be typical).
